Screening data (PubChem)
TRPV1 PAM = enhances activation of the human vanilloid receptor TRPV1; Q8NER1; AID 540277; potentiation, % at 8.33 µM; TRPV1-expressing cells, Fluo-8 calcium influx, capsaicin EC20 potentiation; host cell line not named in the record; control for the full effect not named in the record; actives 0.02% (n = 320,000); active means potentiation above 80%; inconclusive means 30% to 80%; inactive means below 30%; also: 0% is about no effect
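Cells expressing TRPV1 were dye-loaded with Fluo-8 and read kinetically: 10 s baseline, 3 min after compound (agonist portion), then 2 min after EC20 capsaicin (allosteric enhancer portion). Calcium-bound dye fluorescence at 480/520 nm.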
ClpP mod = qHTS Assay for Activators of ClpP; AID 651965, 2013; actives 1.9% (n = 340,000); purified B. subtilis ClpP, FRET peptide cleavage, 20 min; Potency, µM (series often up to 57.5 µM), for the others: at the highest dose activity change, negative = active; ATP-dependent Clp protease proteolytic subunit (Bacillus subtilis (strain 168)), P80244; active = well fitted falling curve with a large enough effect; inconclusive = small, poorly fitted or top-dose-only effect; inactive = no such curve, though single readings can be large or run the other way; also: potency is read from the fitted curve at half-maximal effect; the source files actives as falling curves though it sought activators and does not explain the sign; nearly all actives have a fitted effect of over 65% in size; many hits overshoot -100%
Target sequence (P80244 whole entry, looked up): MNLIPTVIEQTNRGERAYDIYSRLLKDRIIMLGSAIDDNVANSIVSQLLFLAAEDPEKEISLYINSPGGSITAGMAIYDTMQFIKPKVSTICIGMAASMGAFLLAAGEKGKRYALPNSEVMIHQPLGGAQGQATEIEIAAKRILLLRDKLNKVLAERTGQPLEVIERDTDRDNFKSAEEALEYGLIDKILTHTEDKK
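Buffer: 100 mM Tris/HCl pH8, 100 mM KCl, 0.05% low protease BSA, 2.5% glycerol, 0.01% Tween-20. ClpP 10 microg/mL final; 20 min RT; delta FRET normalized to ADEP and DMSO controls.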
TRPML1 inh = blocks the human TRPML1 channel. activity change, negative = inhibition, % (concentration not given with the values). Q9GZU1. actives 0.02% (n = 390,000). TRPML1-inducible cells, Ca2+ dye fluorescence, FDSS; stronger effect = lower value; inhibition of EC80 agonist-evoked calcium signal; in the data active means activity change below about -50%; inconclusive means about -30% to -50%; inactive means above about -30%;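 also: stimulus is agonist 54-4 at its EC80 concentration; % is scaled to controls: 0 for no effect and ±100 for the full control effect; compound concentration not given in the record; the text of the record puts the active cut at -80%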
Target sequence (Q9GZU1 whole entry, looked up): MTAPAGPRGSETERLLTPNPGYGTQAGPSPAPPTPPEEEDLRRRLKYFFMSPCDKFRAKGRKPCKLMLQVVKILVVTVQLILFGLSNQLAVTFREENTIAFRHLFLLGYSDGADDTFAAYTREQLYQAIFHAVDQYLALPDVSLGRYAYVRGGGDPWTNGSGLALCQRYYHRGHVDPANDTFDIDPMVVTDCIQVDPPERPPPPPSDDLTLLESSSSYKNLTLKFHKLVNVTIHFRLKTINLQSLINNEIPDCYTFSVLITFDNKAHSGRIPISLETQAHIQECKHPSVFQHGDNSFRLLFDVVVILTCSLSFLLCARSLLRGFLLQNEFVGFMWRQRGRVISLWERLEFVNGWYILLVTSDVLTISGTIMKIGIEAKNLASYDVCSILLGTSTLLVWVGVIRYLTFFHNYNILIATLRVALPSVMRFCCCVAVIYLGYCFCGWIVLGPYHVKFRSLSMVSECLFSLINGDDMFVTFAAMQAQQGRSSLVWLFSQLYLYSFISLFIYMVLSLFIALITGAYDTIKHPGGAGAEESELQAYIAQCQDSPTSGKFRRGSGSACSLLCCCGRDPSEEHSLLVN
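Tet-induced TRPML1-DL cells loaded with Ca8 no-wash calcium dye were read kinetically on FDSS. Compound addition was followed by EC80 agonist 54-4 (4 uM final); inhibition was read over 110 s.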
Menin MLL FP FL = inhibitors of human menin-MLL interaction, wild-type MLL peptide | FP activity change, % at 61.4 µM | Fluorescence polarization, fluorescein-MLL peptide displacement from menin | 290,000 tested, under 10 active; inconclusive = falling polarisation curve, or a change in total fluorescence; inactive = total fluorescence flat and polarisation flat or rising; no compound was filed as active; the % refers to the polarisation; negative = inhibition;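 also: % of control where 0% means no effect; inhibitors lower the polarisation; unlabelled MLL peptide was the positive control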
gsp antag = antagonists of gsp mutant (McCune-Albright syndrome) | gsp-mutant cells, cAMP HTRF, 30 min; control for the full effect not named in the record | AID 624288 | Potency, µM (titrated, usually from 76.9 µM), inactives show at the highest dose activity change, negative = inhibition, hits mostly inhibitors | actives 0.4% (n = 340,000); active = falling curve of any shape with a large fitted effect; inconclusive = falling curve, mostly with a smaller effect; inactive = flat or rising curve; cell line not stated here;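 also: intracellular cAMP measured with PDE inhibitor Ro 20-1724 present during compound exposure; potency is read from the fitted curve at half-maximal effect; % is scaled to controls: 0 for no effect and ±100 for the full control effect; nearly all actives have a fitted effect of over 65% in size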
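G418-selected cells were plated in DMEM/10% FBS for 16-24 h at 37C, then treated with compounds plus the PDE inhibitor […] (300 uM solution added) for 30 min at 37C. Intracellular cAMP was measured by HTRF after 30 min lysis at room temperature.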
gsp ag = agonists of gsp mutant (McCune-Albright syndrome); gsp mutant cells, cAMP HTRF, 30 min; control for the full effect not named in the record; Potency, µM (titrated, usually from 76.9 µM), for inactives: at the highest dose activation (cAMP increase), usual class: activators; actives 0.13% (n = 340,000); AID 624287; active = well fitted activation curve with a large enough effect; inconclusive = small, poorly fitted or top-dose-only effect, or another doubt; inactive = no such curve, though single readings can be large or run the other way; cell line not stated here;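 also: phosphodiesterase inhibitor Ro 20-1724 added with compounds to block cAMP breakdown; potency is read from the fitted curve at half-maximal effect; nearly all actives have a fitted effect of over 60% in size; about a fifth of the inactives were tested at one dose only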
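Cells stably selected in G418 were plated at 2000/well, grown 16-24 hr, then given compounds in DMSO with the PDE inhibitor […] (300 uM solution added) for 30 min at 37C; cAMP was read by HTRF.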
Sfp inh = Sfp phosphopantetheinyl transferase inhibition. Q9F4F7. Biochemical Sfp PPTase activity, qHTS. actives 3.5% (n = 310,000). Potency, µM, for inactives: max response, negative = inhibition, hits mostly inhibitors; active = well fitted inhibition curve with a large enough effect; inconclusive = small, poorly fitted or top-dose-only effect, or another doubt; inactive = no such curve, though single readings can be large or run the other way;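 also: the enzyme is Sfp with the accession as filed and its product quenches rhodamine fluorescence; potency is read from the fitted curve at half-maximal effect; 0% = enzyme reaction without inhibitor and -100% = no enzyme wells; top concentration of the series not given in the record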
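Compounds were incubated with enzyme (final 15 nM) for 15 min at room temperature before substrate addition started the reaction. Fluorescence at 525 nm excitation, 598 nm emission was recorded immediately and after 30 minutes.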
An asterisk follows results filed as active; u = inconclusive; x = not tested or not shown; [ ] = another dose, or the depositor's remark. Outcome played no part in choosing rows; any-hit rate near 4.9%.

SMILES	TRPV1 PAM	ClpP mod	TRPML1 inh	Menin MLL FP FL	gsp antag	gsp ag	Sfp inh
COC(=O)COc1ccc(C2NC(=O)NC(c3ccccc3)=C2C(C)=O)cc1Br (stereo not given)	u	0.6%	4	1.9	-7%	u	8%
COC(=O)C1(C(=O)OC)C(C(=O)c2ccccc2)C1c1ccccc1 (stereo not given)	x	-3.1%	0	x	-1%	-51%[inhibitor]	x
COc1ccc(C(=O)CN2CCN(S(=O)(=O)c3cccc([N+](=O)[O-])c3)CC2)cc1OC	7	1.1%	11	u	-7%	-52%[inhibitor]	35µM*
CCC1(C)Cc2nc3[nH]c(=S)n(-c4ccccc4)c(=O)c3cc2CO1 (stereo not given)	12	x	-5	-1.0	-2%	4%[15.4 µM]	-27%
CCCN(CC1CC1)C(=O)COC(=O)c1ccc(CNS(=O)(=O)c2ccc(F)c(Cl)c2)cc1	11	1.3%	-5	-1.4	6%	7%	-7%
COc1ccc(NC(=S)NCCNC(C)=O)cc1	-8	-2.8%	1	2.4	6%	-8%	8%
C=CCc1c(C)nc2ccc(C(=O)OCC)cc2c1Cl	-38	x	-1	-0.1	1%	u	-9%
CCNc1nc(NC(C)C)nc(Oc2ccc(OCCOc3ccccc3)nn2)n1	0	-2.1%	2	-6.4	9%	-4%	8%
O=C(Nc1ccc(S(=O)(=O)Nc2nccs2)cc1)c1cc(-c2ccccc2)nc2ccccc12	1	-0.6%	18	5.8	-32%	-3%[15.4 µM]	4%
O=[N+]([O-])c1cccc(-c2nnc(-c3ccccc3)o2)c1	-19	x	23	2.3	-3%	-5%	12%
Cc1sc2nc3ccc(NCc4ccco4)nn3c(=O)c2c1C	2	u	1	2.0	3%	-24%	32µM*
COc1ccccc1NCc1nnc(-c2ccccc2)o1	5	x	3	1.4	3%	-70%[inhibitor]	-2%
COC(=O)c1cc(Sc2cccc(Cl)c2Cl)ccn1	-4	-6.9%	-24	-0.2	6%	-45%[inhibitor]	-8%
COc1ccc(C(=O)CCC(=O)Nc2cccnc2)cc1OC	3	x	-2	-0.5	1%	1%	10%
CS(=O)(=O)N1c2cccc3cccc(c23)S1(=O)=O	6	x	7	0.5	-5%	-6%[15.4 µM]	8%
COc1cc([N+](=O)[O-])ccc1NC(=O)CN1CCCC1	6	-1.9%	20	4.3	7%	5%[15.4 µM]	-28%
Cc1nn(C2CCS(=O)(=O)C2)c(Cl)c1/C=C/C(=O)OCC(N)=O (stereo not given)	x	-0.1%	1	-0.9	8%	-7%	15%
CC(=O)c1cccc(N(C(=O)c2ccco2)C(C(=O)NC2CCCC2)c2ccncc2)c1 (stereo not given)	6	-350%	-5	-0.1	6%	-4%	5%
C/C(=N\NC(=O)c1cc(-c2ccc(C)s2)nc2ccccc12)c1cccnc1	22	3.3%	-2	x	-10%	u	-6%
O=C(CN1C(=O)NC(Cc2c[nH]c3ccccc23)C1=O)Nc1ccc(F)cc1F (stereo not given)	x	-1.9%	9	x	6%	-8%[15.4 µM]	x
O=C(COC(=O)c1ccc2ccccc2c1O)Nc1ccccc1	24	40%	20	x	10%	1%[15.4 µM]	x
O=C(NN=Cc1ccc(Cl)cc1Cl)C1CC1	x	-1.5%	12	x	-5%	-17%	x
COc1cc2c(cc1OC)C(Cc1cc(OC)c(OC)cc1[N+](=O)[O-])=NCC2	x	-28%	13	x	3%	-12%	x
CCOc1ccc(NC(=O)c2ccc3nccnc3c2)cc1	-21	-7.6%	-17	0.8	2%	17%[15.4 µM]	4%
CS(=O)(=O)C1=C(O)C(=O)N(c2ccccc2)C1c1ccccc1 (stereo not given)	-4	-3.0%	-6	2.3	-10%	3%	22%
More records
SMILES	TRPV1 PAM	ClpP mod	TRPML1 inh	Menin MLL FP FL	gsp antag	gsp ag	Sfp inh
CCOC(=O)CN(C(=O)CSc1nnc(-c2ccncc2)n1CCCN(C)C)c1ccccc1	-12	-0.9%	18	6.8	13%	7%	-14%
Cc1ccccc1N1C(=O)C(Cc2ccc(F)cc2)S/C1=C(\C#N)C(N)=O (stereo not given)	7	x	4	u	-22%	5%[15.4 µM]	-7%
CN(C)S(=O)(=O)c1cccc(NC(=S)Nc2cccc3cnccc23)c1	-1	x	6	-20	-13%	19%	2.5µM*
O=C(NN=C1CCCC1)c1ccc(Cl)cc1	-1	0.5%	-15	-19	10%	-7%	-1%
CCOC(=O)C1=C(O)c2ccccc2C(=O)/C1=C\c1ccc(CC)cc1	-6	3.4%	0	u	11%	-10%	2µM*
CC(Sc1nnc(C2CC2)n1C1CC1)C(=O)c1ccc(F)cc1 (stereo not given)	6	-0.3%	-3	x	-11%	2%	x
CC(=O)NC(C)c1nc2ccccc2n1C(C)C (stereo not given)	3	0.8%	7	4.2	7%	-61%[inhibitor]	18%
O=C(NCc1cccnc1)c1ccccc1NS(=O)(=O)c1ccccc1	10	u	23	x	-2%	3%[15.4 µM]	7%
Cc1cc(NC(=O)C2CC=CCC2C(=O)O)ccc1NC(=O)c1ccccc1 (stereo not given)	0	-0.5%	-6	x	2%	-2%	2%
COc1ccc(OC)c(/C=C/c2nc3ccccc3[nH]c2=O)c1	22	x	-8	u	-9%	-14%[15.4 µM]	7%
CC(=O)c1c(C)oc2c1C(=O)c1ccccc1C2=O	5	-1.9%	9	-0.6	-2%	-4%	4%
CN(C)CC(O)c1ccc(C=Cc2ccc(Cl)cc2)cc1 (stereo not given)	x	x	14	x	25%	u	x
COC(=O)C1C(c2ccc(OC)cc2)Nc2nnc(C(F)(F)F)n2C1(C)O (stereo not given)	19	-1.1%	-6	-1.4	7%	1%[15.4 µM]	26%
COC(=O)C1=C(C)N(c2ccc(F)cc2)/C(=C/c2ccc(O)cc2)C1=O	20	x	-9	u	x	-11%[15.4 µM]	-4%
CCCC(=O)OC1CCS(=O)(=O)c2sccc21 (stereo not given)	-1	x	6	-1.7	11%	-36%	20%
Cc1ccc(CN2CCc3c(OCc4ccc(F)cc4)cccc3C2=O)cc1	-3	-8.8%	-7	2.6	-10%	-2%	u
CCC(=O)Nc1ccc(C(=O)CSc2nnc(-c3ccc(NS(=O)(=O)CC)cc3)o2)cc1OC	-5	x	1	-0.2	1%	13%[15.4 µM]	6%
COc1ccc2cc(S(=O)(=O)Nc3ccccn3)ccc2c1	-5	x	11	5.4	-4%	-2%[15.4 µM]	0%
Cc1ccc(Cl)c(NC(=O)COC(=O)c2cc[n+]([O-])cc2)c1Cl	x	-1.4%	-5	x	4%	-36%[inhibitor]	x
Cc1cc(C(=O)N2CCc3ccccc3C2)no1	-11	-1.5%	-15	x	-2%	-32%	9%
COc1ccc(Cl)cc1C(=O)NNC(=O)CSc1nnnn1C	-1	x	-9	1.8	10%	-13%[15.4 µM]	-2%
CCC(=O)c1ccc(OCC(O)Cn2cnc3ccccc32)cc1 (stereo not given)	2	1.6%	-4	0.1	-13%	4%	3%
Cc1c(Cl)cccc1NC(=O)CNC(=O)c1cn(-c2ccccc2)nc1-c1cccnc1	-12	-5.0%	-8	x	5%	-30%[inhibitor]	x
CCn1c(CCNC(=O)c2ccc(Cl)cc2)nnc1SCC(=O)NC1CCCC1	4	-0.5%	2	0.4	-5%	-8%	-6%
Clc1ccc(-c2ccc(-c3nn4c(-c5ccco5)nnc4s3)o2)cc1	x	u	-3	x	-10%	-56%[inhibitor]	x
Next section.
SMILES	TRPV1 PAM	ClpP mod	TRPML1 inh	Menin MLL FP FL	gsp antag	gsp ag	Sfp inh
CCOc1ccc2ccccc2c1C(=O)NCC(c1ccc(N(C)C)cc1)N(C)C (stereo not given)	-7	0.7%	23	-6.9	1%	13%	6%
C[C@@H]1CN([C@@H](C)CO)C(=O)CCCn2nncc2CO[C@H]1CN(C)C(=O)Nc1ccnc(N2CCOCC2)c1	x	1.7%	2	x	x	-16%	x
COC(=O)c1ccccc1NC(NC(=O)c1ccco1)C(=O)c1ccc(C)cc1 (stereo not given)	1	-3.0%	-8	3.0	-2%	-6%	9%
COc1ccc(OC)c2[nH]c(=O)c(CCNC(=S)NC(C)(C)C)cc12	25	-6.9%	-1	-1.7	0%	0%	8%
Cc1c([C@@H]2C[C@H]3CN(Cc4cccc(Cl)c4)C(=O)[C@]34CCCN24)cnn1C	-2	x	-4	-1.2	-5%	2%	u
CCOc1ccc(C(=O)CC(Sc2ccc(C)cc2)C(=O)O)cc1 (stereo not given)	-7	x	6	0.5	-8%	-26%[15.4 µM]	35µM*
COc1ccc(C(=O)N2CCCC(N3CCN(c4ccccc4F)CC3)C2)c(OC)n1 (stereo not given)	-13	-1.9%	23	x	-4%	-3%	-1%
COc1ccc(NC(=O)c2ccc(=O)[nH]c2)cc1S(=O)(=O)N1CCCCC1	-5	x	x	-0.9	x	x	-4%
CCCCNC(=O)Nc1nc2ccc(CC)cc2s1	-12	x	-16	-5.1	-5%	-12%[15.4 µM]	16%
CCN(CC)CCN1C(=O)C(=O)/C(=C(/O)c2c(C)[nH]c(C(=O)OC)c2C)C1c1cccc(OC)c1 (stereo not given)	u	-8.1%	-8	0.1	9%	-5%	4%
C=CCn1c(C)csc1=Nc1ccc(C(=O)O)cc1	4	x	9	9.3	-20%	-28%	-17%
Cc1ccc(NC(=O)CN(C)C(=O)c2cccc(S(=O)(=O)N3CCCC3)c2)cc1	0	0.9%	-11	x	-2%	44%	x
CCOc1cc(N2CCOCC2)c(OCC)cc1NC(=O)COc1ncnc2ccc(Br)cc12	13	0.3%	-6	5.9	3%	u	0%
O=C(CN1C(=O)NC2(CCCCC2)C1=O)Nc1cc(C(F)(F)F)ccc1N1CCCC1	-8	-1.1%	4	x	4%	5%	x
Cc1nc(NC(=O)/C=C/c2ccccc2)sc1C(=O)Nc1ccccc1Cl	-5	-1.5%	-2	-2.5	-4%	2%	16%
O=C1OC2(CCCCC2)OC(=O)C1=CNc1nccs1	-2	0.8%	2	11	7%	-25%	0%
CN(C)NC(=S)Nc1ccc(Cl)cc1	-4	-2.3%	10	0.4	1%	27%	16%
Cc1cccc2cc(CN(Cc3nnnn3C3CCCCC3)C3CCCC3)c3nnnn3c12	0	-2.7%	0	-2.2	-17%	13%	4%
